# Screening data (PubChem BioAssay)
# AmpC inh no det – blocks E. coli AmpC beta-lactamase in absence of detergent; AID 585; P00811; actives 1.8% (n = 71,000); AmpC nitrocefin hydrolysis, absorbance 480 nm, no detergent; potencies from a single point are estimates; Potency, µM (top dose mostly 28.7 µM), inactives show top-dose activity change, negative = inhibition; active = falling curve, for most hits resting on a single point; inconclusive = weak or doubtful change; inactive = flat or rising curve; further: % of control where 0% means no effect; about half of the hits show no inhibition at the top dose; a quarter of the inactives give rising signals
# Target sequence (P00811 whole entry, looked up): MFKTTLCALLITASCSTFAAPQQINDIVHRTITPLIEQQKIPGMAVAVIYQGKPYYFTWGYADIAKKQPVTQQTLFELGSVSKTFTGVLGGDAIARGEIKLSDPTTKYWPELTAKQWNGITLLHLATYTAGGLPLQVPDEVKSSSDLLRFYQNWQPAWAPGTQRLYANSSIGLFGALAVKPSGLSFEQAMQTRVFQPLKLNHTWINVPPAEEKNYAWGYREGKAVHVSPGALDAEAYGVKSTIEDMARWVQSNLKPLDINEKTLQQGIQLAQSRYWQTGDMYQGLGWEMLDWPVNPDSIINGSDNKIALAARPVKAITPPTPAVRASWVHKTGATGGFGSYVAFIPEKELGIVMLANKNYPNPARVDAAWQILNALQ
#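 Enzyme, pH 7.0 phosphate. Compound titrations were pre-incubated with AmpC for 15 min at room temperature before nitrocefin (stock 800 uM) addition; product formation was recorded at 480 nm every 20 s for 4 min.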
# Numbers without * were called inactive; u = inconclusive; & = joins results of further samples; [ ] = remark or other dose. Potency means the concentration at half of the fitted maximal effect. This is a subset; the hit share may differ from the screen's.
Structure | AmpC inh no det
CO[C@H]1C[C@@H](O[C@@H]2[C@H](C)[C@H](O[C@@H]3O[C@@H](C)C[C@@H](N(C)C)[C@@H]3O)[C@H](C)C[C@]3(CO3)C(=O)[C@H](C)[C@H](O)[C@H](C)[C@H](C)OC(=O)[C@@H]2C)O[C@@H](C)[C@H]1O | 29%[12.8 µM]
CN(C)c1nc2ccccc2c(N)c1-c1ccccc1 | -9%
COC(=O)c1[nH]c2ccccc2c1NC(=O)CN1CCCCCC1 | 23%
N#Cc1nc(Cc2cccc3ccccc23)oc1NCc1ccc(F)cc1 | -23%
Cc1cccnc1NC(=O)c1c(O)c2cccc3c2n(c1=O)CCC3 | 93%
CC1CCN(CCCNC(=O)C2CCN(S(=O)(=O)N3CCCCC3)CC2)CC1 | 2%
COc1ccc(NC(=O)C(NS(=O)(=O)c2ccc3c(c2)CCCN3C(C)=O)C(C)C)c(OC)c1 (stereo not drawn) | 65%
Cc1ccc(S(=O)(=O)NCCOCCNS(=O)(=O)c2ccc(C)cc2)cc1 | -14%
COc1ccc(C(=O)Nc2ccccc2)cc1S(=O)(=O)Nc1cc(C)on1 | -6%
Cn1c(COc2ccc(Cl)cc2)nnc1SCC(=O)NC1CCCCC1 | 77%
COc1ccc(-n2nc(C(=O)NCC(=O)NCC3CCCO3)c3ccccc3c2=O)c(OC)c1 (stereo not drawn) | 19%
Cc1cc(C)n2nc(SCC(=O)c3cc(C)n(-c4cc(C)on4)c3C)nc2n1 | 112%
CCOC(=O)C1CCN(S(=O)(=O)c2cc(Br)cc3c2N(C(C)=O)C(C)C3)CC1 (stereo not drawn) | 114%
COCCN(C(=O)c1csnn1)C(C(=O)NC(C)(C)C)c1cccc(OC)c1 (stereo not drawn) | 8%
COc1ccc(C(=O)c2no[n+]([O-])c2C(=O)c2ccc(OC)cc2)cc1 | 7%
O=c1cc(-c2c(F)c(F)c(F)c(F)c2F)oc2c(F)c(F)c(F)c(F)c12 | 2%
O=C(c1ccco1)N1CCN(C(c2cccs2)c2sc3ncnn3c2O)CC1 (stereo not drawn) | 131%
O/N=C1\CCC\C1=C/c1ccco1 | -7%
COc1ccccc1N1CCN(CCNC(=O)Nc2cccc(C)c2C)CC1 | 44%
Cc1cc(C)nc(N(C#N)Cc2ccccc2Cl)n1 | 27%
CCCCCCn1c(NCC)nc2c1c(=O)n(C)c(=O)n2C | 34%
Cc1cc(C)nc(SCCc2ccncc2)n1 | 0%
CCNCC(O)COCC(O)CNCC (stereo not drawn) | -4%
c1cc(-n2cnnn2)ccc1NC1=NCCC1 | 5%
Cc1ccc(N2C(=O)c3n[nH]c(C)c3C2c2ccco2)cc1 (stereo not drawn) | 7%
O=S(=O)(CCN1CCN(C(c2ccccc2)c2ccccc2)CC1)C(F)(F)F | 50%
COC(=O)c1ccc(C(NC(=O)OCc2ccccc2)/C(=C/[C@@H](C)C(=O)NCC2CC2)c2cccnc2)cc1 (stereo partly drawn) | 140%
COc1ccc(NC(=O)N(CCN2CCCC2)Cc2cc3cc(OC)c(OC)cc3[nH]c2=O)cc1 | 30%
Cn1cc(C(=O)c2ccc(F)cc2)cc1-c1nc2ccccc2n1C | 44%
O=C1CN(C(=O)CC2c3ccccc3-c3ccccc32)CC(=O)N1 | 14%
Cc1cc(C)n(-c2nc(-c3cccc(Cl)c3)cs2)n1 | 29%
CC1=CC(=O)c2ccccc2C1=O | -4%[12.8 µM]
Oc1ccc(Cl)cc1Cl | -14%
O[C@H](CNc1ccccn1)c1ccccc1 | 10%[5.75 µM]
Clc1ccc(OCc2nn3c(-c4ccco4)nnc3s2)c(Cl)c1 | -15%
O=C(CN(CCc1ccccc1)C(=O)CN1C(=O)COc2ccccc21)NCc1ccco1 | 34%
CCN(CC)CCCN(Cc1cc2cc(OC)ccc2[nH]c1=O)C(=O)Nc1ccc(F)cc1 | 19%
CN(Cc1ccco1)c1cc(-c2ccc3c(c2)OCO3)ncn1 | 27%
COc1ccc2nc(NC(=O)CSc3nnc4n3C(C)(C)Cc3ccccc3-4)sc2c1 | 95%
Cc1ccc(N2C(=O)c3ccc(C(=O)N4CCN(c5ccccc5F)CC4)cc3C2=O)cc1 | 95%
COCCNC(=O)c1ccc(NS(C)(=O)=O)cc1 | -9%
CC(CN1CCCCC1)OC(=O)c1ccc(Cl)cc1 (stereo not drawn) | 2%
CSc1cccc(NC(=O)c2ccco2)c1 | -11%
O=C(CCC1CCCCC1)N1CCN(Cc2ccc3c(c2)OCO3)CC1 | 90%
O=C(NCc1ccco1)c1cc2nc(-c3ccc4c(c3)OCO4)cc(C(F)(F)F)n2n1 | 63%
O=C(CCCC(=O)N(CC(=O)NC1CCCC1)C1CCCC1)Nc1ccccn1 | 20%
C/C(=C\CNc1ncnc2nc[nH]c12)CO | -7%
CC(C)(C)n1nnnc1C(c1cc2cc3c(cc2[nH]c1=O)OCO3)N1CCN(c2ccccc2)CC1 (stereo not drawn) | 70%
COc1ccc(NCc2nnc(SCC(=O)Nc3cc(C)cc(C)c3)o2)cc1 | 5%
COc1cc(-c2cc(OC)c3c(C)oc(C)c3c(=O)c2)ccc1O | 37%
CCc1ccc(NC(=O)NCCN2CCc3ccccc3C2)cc1 | 13%
O=C(CSc1nnc(-c2ccc3c(c2)OCCO3)o1)N1CCCC1 | 8%
Cn1c(O)c(C=NCCc2c[nH]c3ccccc23)c(=O)n(C)c1=O | 6%
CC(=Nc1ccc2c(c1)CCC2)c1c(O)n(C)c(=O)n(C)c1=O | 7%
CCOC(=O)c1ccccc1N | -3%
Cc1cnc(NC(=O)CSc2nnc(Cc3ccccc3)o2)s1 | -3%

# Next part
Structure | AmpC inh no det
COC(=O)CSc1nnc2c(C)cc3cc4c(cc3n12)OCCO4 | 15%
ClC1=C(Cl)C(Cl)(Cl)C(Cl)=C1Cl | -5%
COc1ccc(-c2cc(C(F)(F)F)n3nc(C(=O)N4CCCCC4)cc3n2)cc1 | 58%
CCOC(=O)N1CCN(C(=O)C(C)N(c2ccc(Oc3ccccc3)cc2)S(C)(=O)=O)CC1 (stereo not drawn) | 146%
[O-][N+]1=c2ccc(Nc3ccccc3)cc2=NC12CCCCC2 | 4%
COc1nc(OC)nc(N2CCC(NC(=O)C(Cc3ccc(C(C)C)cc3)NC(C)=O)CC2)n1 (stereo not drawn) | 121%
COc1ccc(OC)c(NC(=O)C2C3CCC(C3=C(C)C)C2C(=O)O)c1 (stereo not drawn) | 14%
CC(C)Oc1ccc2c3c(c(=O)oc2c1)CCC3 | 8%
Cc1nc2cnc(Oc3cccc(Cl)c3)nc2n(C[C@H]2CCCO2)c1=O | 80%
CC(=O)O[C@@H]1CN2CCC1CC2 | 10%
CC(C)n1c(N2CCN(CC(=O)Nc3ccc4c(c3)OCCO4)CC2)nc2ccccc21 | 130%
CCn1c(=O)cc(SCC(=O)NCc2ccc3c(c2)OCO3)c2ccccc21 | 11%
Cc1ccc(-n2nnnc2SCC(=O)c2cc(C)n(CC3CCCO3)c2C)cc1 (stereo not drawn) | 45%
Cc1ccc(C)c(Cc2c(C)nc3c(C(=O)N4CCOCC4)cnn3c2C)c1 | 84%
CC1Cc2ccccc2N1C(=O)c1cc2c(=O)n3ccccc3nc2n1C (stereo not drawn) | 71%
CCCC(=O)c1c(O)[nH]c(=O)[nH]c1=O | 1%
N#CCCn1c(=O)c(-c2ccccc2)nc2cnc(OCc3ccccc3)nc21 | 8%
C=C(C)CSc1nnc(CCNC(=O)OC(C)(C)C)o1 | 2%
COc1ccc(C(C)=O)cc1COC(=O)c1cnc(C)cn1 | 11%
Cc1cc(C)n(C(CC(=O)O)C(=O)O)n1 (stereo not drawn) | -8%
COCCN(CCOC)c1nc(C)nc2c1nc(-c1ccccc1)n2CCCN(C)C | 47%
COc1ccc(C2C(C(=O)Nc3cc(C)on3)c3ccccc3C(=O)N2C)cc1OC (stereo not drawn) | 21%
COc1ccccc1OCc1ccc(C(=O)N2CCN(C(=O)c3ccco3)CC2)cc1 | 94%
NC(=O)CCN(Cc1ccccc1)S(=O)(=O)c1ccccc1 | 22%
COC(=O)N1CCC2(CCN(C(=O)Nc3ccc(OC)cc3)CC2)CC1 | 13%
Cc1c(C(=O)NCCc2ccccc2)oc2ccc(S(=O)(=O)N3CCOCC3)cc12 | 81%
COc1ccc(NC(=O)CCN2C(=O)C3CC=C(Cl)CC3C2=O)cc1 (stereo not drawn) | 10%
CCOC(=O)c1cnc(-n2cc(C)cn2)nc1Nc1ccccc1OC | 122%
Cc1nc(N2CCN(c3ccccc3)CC2)[nH]c(=O)c1Cc1ccccc1 | 2%
Cn1cccc1Cc1nnc(SCC(=O)NCCc2ccccc2)n1-c1ccc(F)cc1 | 110%
Cc1nnc(N(Cc2ccccc2)C(=O)c2cnccn2)s1 | -1%
Cc1ccc(Cn2nnnc2CN2CCC(n3nnc4cc(C)ccc43)CC2)cc1 | 92%
NS(=O)(=O)O | -9%
COc1cc(OC)c(OC)cc1CNC1CCCCCC1 | -6%
O=C(Nc1c(F)cc(F)cc1Br)c1cc(-c2ccc(O)cc2)on1 | u
Cc1c(C(C)O)nnn1-c1nonc1N (stereo not drawn) | -6%
N#CC(C(=O)NCCc1ccccc1)c1nc2ccccc2nc1N1CCOCC1 (stereo not drawn) | 66%
Cc1ccc2oc(=O)c3cnn(CC(=O)N4CCc5ccccc5C4)c3c2c1 | 16%
Cn1c(=O)c(-c2ccc(Cl)cc2)nc2cnc(N3CCNCC3)nc21 | 44%
O=C(c1sc2ccccc2c1Cl)N(Cc1ccco1)C1CCS(=O)(=O)C1 (stereo not drawn) | 46%
O=C(Oc1ccc2c(=O)c(Cl)coc2c1)c1ccncc1 | 6%
CCCCOC(=O)Nc1ccccc1C(N)=O | -3%
O=C(c1cc(-c2cccnc2)nc2ccc(Br)cc12)N1CCN(c2ncccn2)CC1 | 148%
Cc1nn(Cc2ccc(Cl)cc2)c(C)c1NC(=O)c1cc(-c2ccco2)on1 | 25%
Cc1ccc2oc(=O)c3cnn(CC(=O)NC4CCN(Cc5ccccc5)CC4)c3c2c1 | 2%
O=C(O)C1(P(=O)(c2ccccc2)c2ccccc2)CCC1 | 0%
C[C@@H](C[C@H](N)C(=O)O)C(=O)O | -4%[5.75 µM]
Cc1nc2cc(C(=O)O)ccc2s1 | 2%
CCCN1CCC[C@H](c2cccc(O)c2)C1 | 3%&7%
Nc1nonc1C(=O)NCCNC(=O)c1ccccc1F | -6%
C(=N\n1cnnc1)/c1ccc(-c2ccccc2)cc1 | 48%
CCOc1ccccc1N1CCN(CC(O)COc2ccc3c(C)cc(=O)oc3c2)CC1 (stereo not drawn) | 117%
CCOC(=O)CSc1nnc(CNC(=O)c2ccc(OC)cc2OC)n1-c1ccc(OC)cc1 | 73%
CN(c1cccc(NC(=O)CN2C(=O)c3ccccc3S2(=O)=O)c1)S(C)(=O)=O | -4%
O=C1CCc2c(ccc3ccccc23)O1 | 5%
Cc1ccc(NC(=O)CCn2cnc3ccccc3c2=O)cc1Cl | -15%

# Continuation.
Structure | AmpC inh no det
Cc1nc2cnc(N3CCN(C)CC3)nc2n(C)c1=O | 23%
CCC1CCCCN1Cc1ccc(CNS(=O)(=O)c2ccc3c(c2)oc(=O)n3C)o1 (stereo not drawn) | -1%
Nc1nnc(SCc2ccccc2F)n1-c1ccccc1 | 15%
COC(=O)c1[nH]c2ccccc2c1NC(=O)CN1CCCc2ccccc21 | 50%
Cc1cccc(CSc2nnc(-c3ccco3)n2C)c1 | 4%
Cn1c(=O)c2c(nc(SCc3ccccn3)n2C)n(C)c1=O | -12%
CCOC(=O)C1=C(c2ccccc2)OC(N)=C(C#N)C1c1ccco1 (stereo not drawn) | -8%
Cc1ccc(-n2nnc3c(=O)n(CC(=O)N4CCOCC4)cnc32)cc1 | 4%
CN1CC(=O)NC1=NC(=O)c1ccc(Cl)c(S(=O)(=O)N2CCCCCC2)c1 | 108%
CC(C)CN(C(=O)COC(=O)CCN1C(=O)c2ccccc2C1=O)C1CCS(=O)(=O)C1 (stereo not drawn) | 23%
CC1(C)Cc2noc(N)c2C(C)(C)N1OC(=O)c1cccs1 | -2%
CC1=NN(c2ccc(S(=O)(=O)O)cc2)C(=O)/C1=C\c1ccc(Cl)cc1 | -8%[5.75 µM]
COc1nc(NCc2ccco2)nc(N2CCC(C)CC2)n1 | 8%
O=C(C1CCC(CNc2c(N3CCCCC3)c(=O)c2=O)CC1)N1CCCCC1 (stereo not drawn) | 4µM*[single pt active]
Cc1cc(C(=O)c2cccs2)c(N)s1 | -17%
CCOC(=O)C1CCN(C(=O)c2cn(CCOC)c(=O)c3c2c2ccccc2n3C)CC1 | 106%
COc1ccc(-c2nc(CS(=O)CC(=O)NCCCN3CC(C)CC(C)C3)c(C)o2)cc1OC (stereo not drawn) | 40%
COc1ccc(OC)c(N/C(C)=C/C(=O)c2ccc(C)o2)c1 | -16%
Cn1cccc1C(=O)N1CCC[C@@]2(CCN(c3cccc(-c4ccccc4)c3)C2)C1 | 103%
Cc1cc(C)n(C(C)n2nc(C)cc2C)n1 | 13%
